Env fusion inh: inhibitors of HIV Env-mediated cell fusion | HeLa-JRFL Env/CEM21 cell fusion, luciferase | inhibition, % at 12.3 µM | 360,000 tested, 1.1% active;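 active means mean replicate inhibition score of at least 50 and every replicate individually at or above 50; inconclusive means only one of the two criteria met; inactive means mean below 50 and not all replicates reaching 50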;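 further: 0% = plate neutral controls and 100% = maraviroc near 300 nM; one replicate is shown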
UUG fidelity: modulators of start codon recognition fidelity in yeast. activity score, % at 18.7 µM. S. cerevisiae UUG-firefly luciferase reporter, luminescence/redox ratio. AID 602363. 350,000 tested, 0.13% active;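 active means replicate mean at a twofold rise or more, about +100% in these data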;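 further: firefly luciferase made from a UUG start codon reports start codon fidelity; reporter light over untreated wells divided by growth signal over untreated wells; some hits fall short of that in this replicate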
PABP polyA inh: blocks human PABP binding to poly(A) RNA | fluorescence polarization | inhibition, % at 35 µM | 290,000 tested, 1% active;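 active means 50% or more with normal probe brightness, or confirmed in later tests; inconclusive means above 50% with abnormal brightness, or retests that disagree; inactive means below 50% or failed in later tests; about a fifth of its hits are not listed in these tables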;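 further: calls also rest on retests at 20 µM and on dose response follow-up; controls were probe without protein and protein plus probe with vehicle; some compounds called inactive have numbers as strong as hits; many hits fall short of the cut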
Target sequence (P11940 whole entry, looked up): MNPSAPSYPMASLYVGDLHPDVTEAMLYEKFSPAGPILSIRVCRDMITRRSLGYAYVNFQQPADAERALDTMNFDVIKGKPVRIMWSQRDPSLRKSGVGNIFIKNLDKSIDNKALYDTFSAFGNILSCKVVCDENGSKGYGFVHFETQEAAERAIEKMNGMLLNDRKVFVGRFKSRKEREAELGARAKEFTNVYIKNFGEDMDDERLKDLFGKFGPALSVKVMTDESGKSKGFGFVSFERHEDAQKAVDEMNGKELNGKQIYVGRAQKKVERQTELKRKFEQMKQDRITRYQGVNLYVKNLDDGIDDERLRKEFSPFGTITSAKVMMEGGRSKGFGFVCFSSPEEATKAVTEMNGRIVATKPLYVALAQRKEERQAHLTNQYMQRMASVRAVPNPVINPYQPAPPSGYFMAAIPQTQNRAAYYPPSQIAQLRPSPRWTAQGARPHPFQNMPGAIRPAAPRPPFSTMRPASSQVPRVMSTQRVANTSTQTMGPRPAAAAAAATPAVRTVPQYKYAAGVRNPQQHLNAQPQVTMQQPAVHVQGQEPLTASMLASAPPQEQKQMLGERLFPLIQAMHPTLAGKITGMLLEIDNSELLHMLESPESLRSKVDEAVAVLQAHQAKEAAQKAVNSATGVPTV
CSC inhib: blocks cancer stem cells; inhibition, % at 7.5 µM; AID 2717; 300,000 tested, 1.1% active; cancer stem cell-like cells viability, luminescence;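 active means mean at 75% or more and at least half the replicates too; inconclusive means mean and replicates disagree; tested in HMLE shEcad cells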;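 further: 0% = median of negative and 100% = median of positive control wells; the first replicate is given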
MT1-MMP act inh: blocks activation of human MT1-MMP. HT1080 RFP-PRO-GFP cells, GFP/RFP ratio fluorescence, overnight; percent of plate control window, DMSO zero. GFP/RFP ratio change, % at 20 µM. 360,000 tested, 0.061% active;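 active means GFP/RFP ratio change of at least 30% with cell ATP level not reduced by more than half and red fluorescence within 50% of control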; further: strong numbers were not always called active
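Assay system: HT1080 RFP-PRO-GFP cells. Benchmarks: DMSO vehicle wells and RFP-L50D-GFP reporter cell wells. Times: overnight cell settling, then overnight compound exposure, 37 °C, 5% CO2. Compound: 20 µM single dose, 1% DMSO. Read-out basis: GFP/RFP fluorescence ratio.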
eIF4H FP inh: inhibitors of RNA binding by human eIF4H. eIF4H fluorescence polarization binding assay. inhibition, % at 35 µM. 290,000 tested, 0.94% active. AID 2012;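 active means 50% or more with normal probe brightness, or confirmed in later tests; inconclusive means above 50% with abnormal brightness, or retests that disagree; inactive means below 50% or failed in later tests; about a fifth of its hits are not listed in these tables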;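 further: calls also rest on retests at 20 µM and on dose response follow-up; 0% = protein and probe with vehicle and 100% = probe without protein; strong numbers were not always called active; many hits fall short of the cut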
Rce1 inhib: inhibitors of yeast Ras-converting enzyme; yeast membranes, quenched prenylated peptide cleavage fluorescence; calls only; 290,000 tested, 0.27% active;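 active means fall in fluorescence gain of 50% or more versus controls, with final raw signal at or below 3038400; inconclusive means same 50% fall but final raw signal above 3038400; inactive means fall in fluorescence gain under 50%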;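 further: plate controls were neutral control wells for no effect and wells lacking membranes for full effect; tested at 10 µM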
eIF4H FP inh retest: also measured in eIF4H FP inh; calls as there; inhibition, %; compound at 20 µM; confirmation average;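 mean of two retest wells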
PABP polyA inh retest: recorded beside PABP polyA inh, whose call it bears; inhibition, %; compound at 20 µM; confirmation repeats;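 mean of two retest wells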
MT1-MMP act inh RFP: further read-out of MT1-MMP act inh, marked with its call; RFP signal change, %; measured here: RFP expression control read;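 0 = vehicle wells; hits needed this value within 50% of zero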
* marks the source's active call; other numbers are inactive results; i = inactive; ? = inconclusive; · = no result given; & = joins results of further samples.

SMILES	Env fusion inh	UUG fidelity	PABP polyA inh	CSC inhib	MT1-MMP act inh	MT1-MMP act inh RFP	eIF4H FP inh	Rce1 inhib	others
COc1ccc(C)cc1N(CC(=O)Nc1ccc(S(=O)(=O)N2CCCC2)cc1)S(C)(=O)=O	3	-8	-4	-5	-3	-3	10	i
CCN(CC)S(=O)(=O)c1ccc(OC)c(NC(=O)c2cccc(C)c2[N+](=O)[O-])c1	20	-7	?	5	1	-1	2	i
COc1ccc(C2=Nn3c(nnc3-c3ccccc3OC)SC2)cc1OC1CCOC1 (stereo not given)	-242	5	·	46	25	3	·	·
O=C(COC(=O)c1cnccn1)Nc1ccc2c(c1)OCO2	·	-16	-1	3	-3	-2	9	i
COc1cccc(NC(=O)COC(=O)CC2CC3CCC2C3)c1 (stereo not given)	2	-2	·	-19	10	4	·	·
CC(=O)N(C)C[C@H]1Oc2cc(Br)ccc2S(=O)(=O)N([C@H](C)CO)C[C@@H]1C	6	1&-3&1	·	·	-1	3	·	·
COc1ccc2nc(SCC(=O)Nc3cc(OC)c(OC)cc3C(=O)O)c(C)cc2c1	-5	-18	-5	-11	1	3	-7	i
Cc1ccc(S(=O)(=O)Nc2ccccc2N2CCCCC2)cc1	·	-10	·	-5	-4	-9	·	·
COc1cc(OC)c(C(=O)Oc2ccc3c(c2)OCO3)cc1OC	·	-36	-1	3	3	-2	9	i
CC(C)=CC(O)C/C(C)=C/COc1ccc2ccc(=O)oc2c1 (stereo not given)	·	-14	9	-12	-42	-36	-7	i
COc1ccc(/C=N/NC(=O)CCc2n[nH]c(=O)[nH]c2=O)cc1OC	-23	-12	1	-3	1	3	3	i
COc1cccc(OC)c1C(=O)Nc1ccc2c(c1)N(S(=O)(=O)c1cccs1)CCC2	4	-7	-2	5	-1	0	80	i	eIF4H FP inh retest=-6;PABP polyA inh retest=3
CCOC(=O)C(Oc1ccc2c(-c3ccccc3)cc(=O)oc2c1)c1ccccc1 (stereo not given)	15	-13	-6	-1	-3	-1	-10	i
COc1ccc(CCn2c(=S)[nH]c3cc(C(=O)NCc4ccco4)ccc3c2=O)cc1OC	·	-4	-4	·	-1	-8	18	i
CC(Sc1nnc(-c2cccnc2)o1)C(=O)NC1CCCC1 (stereo not given)	-1	-8	·	·	0	-5	·	·
CCC(C(=O)NCc1ccccn1)n1c2ccccc2c2nc(=O)cc(C)n21 (stereo not given)	1	-34	-6	-13	0	1	4	i
O=C(CCCNC(=O)/C(=C/c1ccccc1F)NC(=O)c1ccccc1)OCc1ccccc1	-15	·	2	-1	1	0	-1	i
CN1CCN(c2ccccc2NC(=O)c2cc3ccccc3o2)CC1	-33	-3	0	-19	-2	-2	2	i
CSc1nc2ccc(NC(=O)CS(=O)(=O)c3ccccc3)cc2s1	-9	-11	·	·	4	3	·	·
NC(=O)CC1(c2ccccc2)CCCCC1	3	-15	·	·	-2	2	·	·
Cc1ccc(C(=O)NCCCNC(=O)COc2ccc(Cl)cc2)cn1	0	-14	10	·	0	1	-2	i
CC1CCCCC1NC(=O)c1c(O)nc2ccccn2c1=O (stereo not given)	·	8	·	-5	-2	-1	·	i
O=c1cnn(Cc2ccc(Cl)c(Cl)c2)c2ccccc12	0	-12	4	-22	2	-4	3	i
Cc1ccc(C2NNC(=O)C2NC(=O)c2ccccc2)cc1 (stereo not given)	·	0	4	-13	-2	0	2	i
O=C(c1cn(-c2ccccc2)nc1-c1ccc(Br)cc1)N1CCOCC1	-5	-24	4	-1	-5	3	17	i
Brc1ccc(-n2c(SCc3nc4ccccc4[nH]3)nnc2-c2ccncc2)cc1	-32	·	-2	-12	1	0	-2	i
Cc1nnc(C)n1/N=C/c1ccc(-c2ccccc2)cc1	·	9	12	-12	-1	0	14	i
COc1ccc(NCC(=O)N/N=C(\C)c2cc3ccccc3o2)cc1	-25	·	40	-14	0	-4	62	i	eIF4H FP inh retest=45;PABP polyA inh retest=40
O=C(O)CSc1nc(-c2ccccc2)nc2c1oc1ccccc12	-32	-17	8	16	2	3	-4	i
Cc1ccc2cc(C(c3nnnn3C3CCCC3)N(Cc3ccccc3)Cc3ccco3)c(=O)[nH]c2c1 (stereo not given)	·	·	4	-9	-16	-13	-4	i
CCc1ccc(CN2CCC(Oc3ccc(C(=O)N4CCCCC4)cc3)CC2)cc1	30	-6	-2	0	-1	-6	3	i
COc1ccc(NC(=S)N2CCN(C/C=C/c3ccccc3)CC2)cc1OC	·	-23	-7	-3	6	1	2	i
NS(=O)(=O)c1ccc(CCNC(=O)c2ccc([N+](=O)[O-])s2)cc1	8	20	-5	5	2	-5	-4	i
O=C1/C(=C/c2cccnc2)Cc2ccc(Cl)cc21	26	-19	·	-1	-3	-2	·	i
COc1ccc(C(=O)O)cc1S(=O)(=O)N(C)C	19	7	-11	-2	3	3	-9	i
CC(C#N)Sc1ncnc2sc3c(c12)CCC3 (stereo not given)	·	-31	-1	-33	-4	1	-10	i
O=C(O)CCn1c(SCCOc2ccccc2F)nc2ccccc21	-2	-16	96	0	0	-2	-5	i	eIF4H FP inh retest=-4;PABP polyA inh retest=4
CCc1ccc(N=C2NC(=O)/C(=C/c3cc(OC)c(OC)c(OC)c3)S2)cc1	10	-23	-1	44	0	-10	4	·
Cc1ccccc1OCC(=O)Nc1cc(S(=O)(=O)N2CCOCC2)ccc1N1CCCC1	·	-6	·	5	-1	0	·	·
Cc1ccc(C(=O)N(CC(=O)Nc2sc(C)c(C)c2C(N)=O)C2CCCC2)cc1	9	-1	15	9	3	-1	4	i

Two consecutive entries out of the list so far:
SMILES	Env fusion inh	UUG fidelity	PABP polyA inh	CSC inhib	MT1-MMP act inh	MT1-MMP act inh RFP	eIF4H FP inh	Rce1 inhib	others
CC(C#N)Sc1ncnc2sc3c(c12)CCC3 (stereo not given)	·	-31	-1	-33	-4	1	-10	i
O=C(O)CCn1c(SCCOc2ccccc2F)nc2ccccc21	-2	-16	96	0	0	-2	-5	i	eIF4H FP inh retest=-4;PABP polyA inh retest=4

Following part:
SMILES	Env fusion inh	UUG fidelity	PABP polyA inh	CSC inhib	MT1-MMP act inh	MT1-MMP act inh RFP	eIF4H FP inh	Rce1 inhib	others
CC(=O)N1CCN(c2ccnc3cc(Cl)ccc23)CC1	15	2	-3	-2	-3	2	-4	i
COc1ccc(NC(=O)CSc2ncnc3c2cnn3Cc2ccccc2)cc1OC	54	0	-11	-7	0	-8	-10	i
CCCCn1nc2cc(C(=O)NCCc3ccc(C)cc3)ccc2c1OCC	2	-1	-7	48	5	0	-14	i
CCN(C(=O)C(C)OC(=O)C1C(C(=O)OC)=C(C)NC(C)=C1C(=O)OC)c1ccccc1 (stereo not given)	-1	-8	-3	5	-1	-1	-4	i
CC1CC(C)CN(S(=O)(=O)N2CCCC(C(=O)NC3CCCCC3)C2)C1 (stereo not given)	30	-18	-2	2	-2	1	-10	i
C[N+](C)(C)CCOC(=O)C1(c2ccccc2)CCCC1	·	·	39	-6	-4	9	10	i
Cn1cc(C(N)=O)c2ccccc21	·	5	9	-7	1	3	6	i
CCC1(C)OC(=O)N(CCCn2ccnc2C)C1(C)O (stereo not given)	-5	-33	-7	-8	1	11	3	i
CCNC(=O)C(Cc1ccccc1)NC(=O)OCc1ccccc1 (stereo not given)	-9	-11	5	·	-1	1	-4	i
CCN(CC)S(=O)(=O)c1cc(Cl)ccc1OC	22	·	5	2	-4	-1	-8	i
COCCNC(=O)C1CCC(=O)N1S(=O)(=O)c1ccc(C)cc1 (stereo not given)	-5	2	-8	-13	-2	5	0	i
CN(CCc1cn[nH]c1)Cc1nc(C(c2ccccc2)c2ccccc2)no1	-9	-21	-3	-33	-6	0	-9	i
Cc1ccccc1OCC(=O)NCCC(=O)O	·	·	7	1	1	8	-4	i
CCOC(=O)CCC(NC(=O)c1ccc(NCN2C(=O)CCC2=O)cc1)C(=O)OCC (stereo not given)	-53	-13	6	-11	-1	5	-6	i
CC(=O)NCCc1ccc(S(=O)(=O)Nc2ccc(NC(=O)c3ccc(F)cc3)cc2)cc1	9	-12	6	0	1	2	1	·
CC(C)[C@H](NC(=O)c1ccccc1)C(=O)OCC(=O)N1CCCc2ccccc21	-18	·	11	-4	-4	-3	0	i
Cc1cc(C(=O)NCCCn2ccnc2)sc1-c1ccccc1	19	-18	-1	25	2	-4	7	i
COc1cccc(CN(Cc2cccnc2)S(=O)(=O)c2ccc(-n3cnnn3)c(C)c2)c1OC	·	4	2	-8	-3	-1	2	i
COC(=O)c1ccccc1NC(=O)c1ccc(COc2ccc(C)c(C)c2)o1	·	-21	2	38	0	3	4	i
COc1ccc(C(=O)NC2CCCCCC2)cc1S(=O)(=O)Nc1ccc(Br)cc1	·	·	-12	-2	4	-5	-4	i
COc1ccc(C(=O)Nc2cc3c(cc2C#N)OCO3)cc1S(=O)(=O)N1CCN(C)CC1	-16	-23	-14	-12	1	1	-10	i
CC1=CC(C)(C)C(C(=O)O)C(C(=O)O)C1 (stereo not given)	-21	2	1	-8	-1	1	5	i
Cc1ccc(Cc2c(-c3ccc(Cl)cc3)nc3c(C)cc(Br)cn23)cc1	-468	23	·	·	-9	-13	·	·
CCOc1cccc(CN2CCN(Cc3ccc(C)o3)C(CCO)C2)c1O (stereo not given)	0	-9	-2	-8	-5	-2	1	i
COc1ccc(OC)c(NC(=O)c2ccccc2SC)c1	-111	4	-2	-1	0	2	2	i
CCCCCn1c(=O)[nH]c2cc(C(=O)NCCCN3CCCCC3CC)ccc2c1=O (stereo not given)	-4	-11	1	-11	0	-2	-4	·
Cc1c([N+](=O)[O-])c([N+](=O)[O-])nn1CC(=O)N1CCCCC1	14	-13	-5	-8	4	6	-16	i
CC(C)[C@H](NC(=O)c1ccccc1F)C(=O)OCC(=O)NC(=O)NC1CCCCC1	8	9	·	0	3	-3	·	·
COc1ccc(C2CC(=O)C(C=NCCN3CCN(C(=S)Nc4ccccc4)CC3)=C(O)C2)cc1 (stereo not given)	7	·	11	-1	0	-5	3	i
Cc1ccc(NC(=O)C2CCN(S(=O)(=O)c3ccc4c(c3)NC(=O)C(C)S4)CC2)cc1Cl (stereo not given)	2	-14	-2	32	0	-30	58	i	eIF4H FP inh retest=8;PABP polyA inh retest=39
C#CCn1cc(/C=C2\NC(=O)NC2=O)c2ccccc21	13	·	2	6	4	-3	8	i
CCOCCc1c(O)nc(SC)[nH]c1=O	-7	·	1	4	-2	3	2	i
COc1ccc(OCCNS(=O)(=O)c2cccc([N+](=O)[O-])c2)cc1	5	·	11	·	0	2	-3	i
CCN(CC)S(=O)(=O)c1ccc(-c2cn3ccccc3n2)cc1	-66	-11	·	·	5	1	·	·
COc1ccc(Cl)c(S(=O)(=O)N2CCCC2)c1	·	·	11	-4	2	2	-3	i
Cc1nn(-c2ccccc2)c2nc(N)c(C#N)c(-c3ccc(O)c(O)c3)c12	2	25	9	44	-3	-7	-9	i
COc1ccc(S(=O)(=O)N2CCOC2CNC(=O)C(=O)NCc2cccnc2)cc1C (stereo not given)	12	-16	8	10	3	-2	-6	i
O=C(Nc1cccnc1)c1cc(-c2ccc(Cl)cc2)on1	-42	·	-9	-23	-5	-2	-9	i
Cc1cc(C)c(C)c(S(=O)(=O)NCC(=O)Nc2ccc(F)cc2)c1C	22	-7	7	5	-4	0	3	i
COc1ccc(OC)c(C(=O)COC(=O)c2ccc([N+](=O)[O-])o2)c1	·	-13	·	-18	-6	-6	·	·
COc1cc(CNCCCN2CCOCC2)c(Br)cc1OCC(=O)Nc1ccccc1C	-54	·	4	5	5	6	-5	i

Screens deposited in PubChem BioAssay by several laboratories.
